# From PubChem
# Env fusion inh – inhibitors of HIV Env-mediated cell fusion. HeLa-JRFL Env/CEM21 cell fusion, luciferase. inhibition, % at 12.3 µM. hit rate 1.1% among 360,000. AID 651610;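 active means mean replicate inhibition score of at least 50 and every replicate individually at or above 50; inconclusive means only one of the two criteria met; inactive means mean below 50 and not all replicates reaching 50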;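 further: 0% = plate neutral controls and 100% = maraviroc near 300 nM; one replicate is shown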
# Yeast UUG start – yeast start codon fidelity modulation; hit rate 0.13% among 350,000; S. cerevisiae UUG-firefly luciferase reporter, luminescence/redox ratio; activity score, % at 18.7 µM;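 active means replicate mean at a twofold rise or more, about +100% in these data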;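 further: firefly luciferase made from a UUG start codon reports start codon fidelity; reporter light over untreated wells divided by growth signal over untreated wells; some hits fall short of that in this replicate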
# * = called active by the depositor; u = inconclusive; [ ] = another dose, or the depositor's remark.
# Order of values – Env fusion inh, Yeast UUG start
> COCC(=O)N1C[C@H](C)[C@H](OC)CN(C)C(=O)c2cc(NC(=O)NC(C)C)ccc2OC[C@H]1C
 : -15[16.7 µM], 5
> COC(=O)C[C@H]1CC[C@H]2[C@@H](COC[C@@H](O)CN2C(=O)Nc2cccc(F)c2)O1
 : -114[16.7 µM], 2
> CC(C)C#Cc1ccc2c(c1)O[C@@H](CN(C)C(=O)CN(C)C)[C@@H](C)CN([C@@H](C)CO)S2(=O)=O
 : 13[16.7 µM], 11
> C[C@@H]1CN([C@H](C)CO)C(=O)c2cc(NS(=O)(=O)c3cccs3)ccc2O[C@H]1CN(C)C(=O)Nc1ccc(F)cc1
 : 39[16.7 µM], -4
> CN1C(=O)c2cc(NC(=O)Nc3ccc(Cl)cc3)ccc2OC[C@H]2O[C@H](CC(=O)O)CC[C@@H]21
 : -17[16.7 µM], -2
> COc1ccc(NC(=O)Nc2ccc3c(c2)C(=O)N([C@@H](C)CO)C[C@@H](C)[C@H](CN(C)Cc2ccccc2)OCCCC[C@@H](C)O3)cc1
 : -4[16.7 µM], 31
> C/C=C/c1ccc2c(c1)O[C@H](CN(C)C(=O)NC1CCCC1)[C@H](C)CN([C@@H](C)CO)S2(=O)=O
 : u, 14
> C[C@@H]1CN([C@@H](C)CO)C(=O)c2cccc(NS(=O)(=O)c3cn(C)cn3)c2O[C@@H]1CN(C)Cc1ccc(C(=O)O)cc1
 : 4[16.7 µM], -13
> C[C@H]1CN([C@@H](C)CO)C(=O)Cc2cc(NC(=O)Cc3ccccc3)ccc2O[C@H]1CN(C)CC1CC1
 : -13[16.7 µM], -1
> C[C@H]1CN([C@@H](C)CO)S(=O)(=O)c2ccc(-c3cncnc3)cc2O[C@@H]1CN(C)Cc1ccccc1
 : 4[16.7 µM], 6
> C[C@@H]1CN([C@H](C)CO)C(=O)c2cc(NC(=O)Nc3ccc(C(F)(F)F)cc3)ccc2O[C@@H](C)CCCCO[C@H]1CN(C)Cc1ccc(C(F)(F)F)cc1
 : 64*[16.7 µM], -9
> C[C@@H]1CN([C@@H](C)CO)C(=O)Cc2cc(NS(=O)(=O)c3cccs3)ccc2O[C@@H]1CN(C)C(=O)Nc1ccccc1
 : 12[16.7 µM], -5
> C[C@H]1CN([C@@H](C)CO)S(=O)(=O)c2ccc(-c3ccccc3)cc2O[C@@H]1CN(C)C(=O)CN(C)C
 : -26[16.7 µM], -7
> C[C@H]1CN([C@@H](C)CO)C(=O)c2cc(C3=CCCC3)cnc2O[C@@H]1CN(C)Cc1ccccc1C(=O)O
 : -30[16.7 µM], 1
> C[C@@H]1CN([C@@H](C)CO)C(=O)c2cc(NC(=O)CCC(F)(F)F)ccc2O[C@@H](C)CCCCO[C@H]1CN(C)Cc1ccc(Cl)c(Cl)c1
 : 5[16.7 µM], 16
> O=C(Nc1ccc(Cl)c(Cl)c1)N[C@@H]1CC[C@H](CCn2cc(C3CCCCC3)nn2)O[C@@H]1CO
 : 13[16.7 µM], -12
> C[C@@H]1CN([C@H](C)CO)S(=O)(=O)c2ccc(C#Cc3ccc(F)cc3)cc2O[C@@H]1CN(C)C(=O)CN(C)C
 : 10[16.7 µM], 23
> C[C@H]1CCCCO[C@@H](CN(C)C(=O)Nc2ccc(C(F)(F)F)cc2)[C@@H](C)CN([C@@H](C)CO)C(=O)c2cc(N(C)C)ccc2O1
 : 36[16.7 µM], -5
> O=C(O)C[C@@H]1CC[C@H](NC(=O)Nc2ccccc2)[C@@H](CO)O1
 : 8[16.7 µM], -8
> CO[C@@H]1CN(C)C(=O)c2cc(NC(=O)Nc3ccccc3)ccc2OC[C@H](C)N(C(C)=O)C[C@@H]1C
 : 12[16.7 µM], 18

# The list goes on.
# Order of values – Env fusion inh, Yeast UUG start
> C[C@H]1CCCCO[C@H](CN(C)S(=O)(=O)c2cccs2)[C@@H](C)CN([C@@H](C)CO)C(=O)c2cc(NS(C)(=O)=O)ccc2O1
 : 5[16.7 µM], -23
> C[C@H](CO)N1C[C@H](C)[C@H](CN(C)Cc2cccnc2)Oc2cc(C#CCN(C)C)ccc2S1(=O)=O
 : -40[16.7 µM], -9
> C[C@@H]1CCCCO[C@@H](CN(C)Cc2ccc(Cl)c(Cl)c2)[C@H](C)CN([C@@H](C)CO)C(=O)c2cc(NS(=O)(=O)c3cn(C)cn3)ccc2O1
 : 19[16.7 µM], 6
> C[C@@H]1CN([C@H](C)CO)C(=O)c2cc(N(C)C)ccc2O[C@@H](C)CCCCO[C@@H]1CN(C)S(C)(=O)=O
 : -9[16.7 µM], -10
> Cc1noc(C)c1NC(=O)N[C@H]1CC[C@H](CC(=O)Nc2ccccc2)O[C@@H]1CO
 : -12[16.7 µM], -12
> CCCC#Cc1ccc2c(c1)O[C@@H](CN(C)C(=O)COC)[C@@H](C)CN([C@H](C)CO)S2(=O)=O
 : -6[16.7 µM], 0
> Cc1ccc(-c2cnc3c(c2)C(=O)N([C@@H](C)CO)C[C@@H](C)[C@H](CN(C)C(=O)c2ccc(F)cc2)O3)cc1
 : -6[16.7 µM], 15
> CCS(=O)(=O)N[C@H]1C=C[C@H](CC(=O)NCc2ccc(F)cc2)O[C@H]1CO
 : -13[16.7 µM], -9
> C[C@H]1CN([C@@H](C)CO)C(=O)Cc2cc(NC(=O)CCC(F)(F)F)ccc2O[C@H]1CN(C)C(=O)Nc1ccccc1
 : 35[16.7 µM], 8
> C[C@H]1CN([C@@H](C)CO)C(=O)c2cccc(NC(=O)c3nc4ccccc4s3)c2O[C@H]1CN(C)S(=O)(=O)c1cccs1
 : 19[16.7 µM], 4
> C/C=C/c1cnc2c(c1)C(=O)N([C@H](C)CO)C[C@@H](C)[C@@H](CN(C)C(=O)CN1CCOCC1)O2
 : -10[16.7 µM], 1
> COc1ccc(S(=O)(=O)Nc2ccc3c(c2)CC(=O)N([C@H](C)CO)C[C@@H](C)[C@H](CN(C)Cc2ccc(C(=O)O)cc2)O3)cc1
 : -2[16.7 µM], -27
> O=C(C[C@@H]1C=C[C@@H](NC(=O)Nc2ccc(C(F)(F)F)cc2)[C@H](CO)O1)NCc1ccccn1
 : -3[16.7 µM], -2
> COc1ccc(NC(=O)Nc2ccc3c(c2)C(=O)N([C@H](C)CO)C[C@H](C)[C@H](CN(C)Cc2ccc(C(F)(F)F)cc2)OCCCC[C@@H](C)O3)cc1
 : -108[16.7 µM], 11
> Cc1ccccc1S(=O)(=O)N1C[C@H](O)COC[C@@H]2O[C@@H](CC(=O)N3CCN(C)CC3)CC[C@H]21
 : -14[16.7 µM], -7
> COc1ccc(NC(=O)N(C)C[C@@H]2Oc3ccc(NC(=O)Nc4c(C)noc4C)cc3C(=O)N([C@H](C)CO)C[C@H]2C)cc1
 : 5[16.7 µM], -26
> CCC(=O)N(C)C[C@@H]1Oc2cc(C#CCOC)ccc2S(=O)(=O)N([C@H](C)CO)C[C@@H]1C
 : 9[16.7 µM], 4
> C[C@@H]1CN([C@@H](C)CO)S(=O)(=O)c2ccc(-c3ccncc3)cc2O[C@H]1CN(C)C
 : 1[16.7 µM], -16
> C[C@H]1CN([C@@H](C)CO)C(=O)c2cc(C#CC3CCCCC3)cnc2O[C@H]1CN(C)Cc1cncnc1
 : -31[16.7 µM], 19
> Cc1noc(C)c1NC(=O)N(C)C[C@@H]1Oc2ncc(C3=CCCC3)cc2C(=O)N([C@H](C)CO)C[C@@H]1C
 : 16[16.7 µM], 12

# Other compounds follow.
# Order of values – Env fusion inh, Yeast UUG start
> O=C(C[C@@H]1C[C@@H]2c3cc(NC(=O)Cc4ccncc4)ccc3O[C@@H]2[C@H](CO)O1)NCc1ccc2c(c1)OCO2
 : -4[16.7 µM], -15
> CN1CCN(C(=O)C[C@@H]2CC[C@H]3[C@@H](COc4ccc(NC(=O)c5cccs5)cc4C(=O)N3C)O2)CC1
 : -7[16.7 µM], -20
> C[C@@H]1CN([C@@H](C)CO)S(=O)(=O)c2ccc(-c3ccc(C(=O)N(C)C)cc3)cc2O[C@H]1CN(C)C(=O)C1CCOCC1
 : 0[16.7 µM], 9
> CNC[C@@H]1Oc2ccc(NC(=O)Cc3cn(C)c4ccccc34)cc2C(=O)N([C@@H](C)CO)C[C@H]1C
 : 12[16.7 µM], 4
> O=C(C[C@H]1C[C@H]2c3cc(NC(=O)Nc4ccc(C(F)(F)F)cc4)ccc3O[C@H]2[C@H](CO)O1)NCC1CC1
 : -2[16.7 µM], -11
> C[C@@H]1CCCCO[C@@H](CN(C)S(=O)(=O)c2ccc(F)cc2)[C@@H](C)CN([C@@H](C)CO)C(=O)c2cc(NS(=O)(=O)c3ccc(F)cc3)ccc2O1
 : -43[16.7 µM], 28
> Cc1cccc(S(=O)(=O)N(C)C[C@H]2OCc3cn(nn3)CCCC(=O)N([C@@H](C)CO)C[C@H]2C)c1
 : -4[16.7 µM], 8
> COc1cccc(S(=O)(=O)N[C@@H]2CC[C@H](CC(=O)NCc3ccc(F)cc3)O[C@H]2CO)c1
 : -16[16.7 µM], 2
> O=C(N[C@H]1CC[C@H](CCn2cc(C3(O)CCCC3)nn2)O[C@@H]1CO)C1CCCCC1
 : 0[16.7 µM], 2
> O=C(CC1CC1)Nc1ccc2c(c1)[C@@H]1C[C@@H](CC(=O)NC3CCCC3)O[C@H](CO)[C@@H]1O2
 : 18[16.7 µM], -8
> CC(=O)N(C)C[C@H]1Oc2ncc(-c3cccnc3)cc2C(=O)N([C@@H](C)CO)C[C@H]1C
 : 4[16.7 µM], -13
> CNC[C@H]1Oc2c(NC(=O)Nc3ccc(OC)cc3)cccc2C(=O)N([C@@H](C)CO)C[C@H]1C
 : -14[16.7 µM], 7
> CCCc1cn(CC[C@H]2CC[C@H](NC(=O)CCN3CCCCC3)[C@H](CO)O2)nn1
 : 5[16.7 µM], -9
> Cc1ccc(-c2ccc3c(c2)O[C@@H](CN(C)C(=O)C2CCC2)[C@H](C)CN([C@@H](C)CO)S3(=O)=O)cc1
 : 0[16.7 µM], 48
> O=C(Cc1ccccc1)N[C@@H]1C=C[C@H](CC(=O)N2CCCCC2)O[C@H]1CO
 : -18[16.7 µM], -32
> C[C@H]1CCCCO[C@@H](CN(C)C(=O)Nc2ccc(C(F)(F)F)cc2)[C@@H](C)CN([C@@H](C)CO)C(=O)c2cc(NS(=O)(=O)c3ccccc3)ccc2O1
 : 64*[16.7 µM], 29
> COc1ccc(S(=O)(=O)N(C)C[C@H]2OCCCC[C@@H](C)Oc3ccc(NS(=O)(=O)c4ccc(F)cc4)cc3C(=O)N([C@@H](C)CO)C[C@H]2C)cc1
 : -39[16.7 µM], -2
> C[C@H](CO)N1C[C@H](C)[C@@H](CN(C)C(=O)CC2CC2)Oc2cc(-c3cncnc3)ccc2S1(=O)=O
 : -1[16.7 µM], -11
> COc1ccc(NC(=O)N(C)C[C@@H]2OCCCC[C@@H](C)Oc3ccc(NC(=O)NC(C)C)cc3C(=O)N([C@H](C)CO)C[C@H]2C)cc1
 : -3[16.7 µM], 12
> C[C@H]1CN([C@@H](C)CO)C(=O)c2cc(NS(=O)(=O)c3ccccc3)ccc2O[C@H]1CN(C)C(=O)Nc1cccc2ccccc12
 : 0[16.7 µM], 4

# Retrieved by compound from the entries so far (2):
# Order of values – Env fusion inh, Yeast UUG start
> C[C@H](CO)N1C[C@H](C)[C@@H](CN(C)C(=O)CC2CC2)Oc2cc(-c3cncnc3)ccc2S1(=O)=O
 : -1[16.7 µM], -11
> CO[C@@H]1CN(C)C(=O)c2cc(NC(=O)Nc3ccccc3)ccc2OC[C@H](C)N(C(C)=O)C[C@@H]1C
 : 12[16.7 µM], 18

# (cont.)
# Order of values – Env fusion inh, Yeast UUG start
> C[C@@H]1CN([C@@H](C)CO)S(=O)(=O)c2ccc(C#Cc3ccccn3)cc2O[C@@H]1CN(C)C(=O)C1CC1
 : 6[16.7 µM], 5
> CCCCNC(=O)c1ccc(C#CC(C)(C)C)c(OC(C)=O)c1
 : -8[16.7 µM], 64
> CN(C)C(=O)C[C@@H]1C[C@H]2c3cc(NC(=O)NC4CCCC4)ccc3O[C@H]2[C@H](CO)O1
 : -16[16.7 µM], -5
> C[C@H](CO)N1C[C@H](C)[C@@H](CN(C)C(=O)Nc2cc(F)ccc2F)Oc2cc(C#CC3CCCC3)ccc2S1(=O)=O
 : 0[16.7 µM], -15
> C[C@H](CO)N1C[C@H](C)[C@H](CN(C)Cc2ccc(C(F)(F)F)cc2)Oc2ccc(NC(=O)CCCN(C)C)cc2C1=O
 : -2[16.7 µM], -11
> COc1ccc(CN(C)C[C@@H]2OCCCC[C@H](C)Oc3ccc(NC(=O)Nc4ccccc4)cc3C(=O)N([C@@H](C)CO)C[C@@H]2C)cc1
 : 23[16.7 µM], 27
> C[C@H](CO)N1C[C@H](C)[C@H](CN(C)CC2CC2)Oc2cc(-c3ccccc3)ccc2S1(=O)=O
 : 1[16.7 µM], 14
> C[C@H]1CN([C@@H](C)CO)C(=O)Cc2cc(NC(=O)CCCCCC(=O)Nc3ccccc3N)ccc2O[C@@H]1CN(C)Cc1ccc(-c2ccccc2)cc1
 : 4[16.7 µM], 10
> CC(C)CC#Cc1cnc2c(c1)C(=O)N([C@H](C)CO)C[C@H](C)[C@@H](CN(C)C(=O)Cc1cccnc1)O2
 : -8[16.7 µM], -5
> C[C@H]1CN([C@@H](C)CO)S(=O)(=O)c2ccc(-c3cccc(C#N)c3)cc2O[C@H]1CN(C)Cc1cccc(F)c1
 : 74*[16.7 µM], 1

# Some of these compounds in order of their number in Yeast UUG start, falling.
SMILES	Yeast UUG start
CCCCNC(=O)c1ccc(C#CC(C)(C)C)c(OC(C)=O)c1	64
CN(C)C(=O)C[C@@H]1C[C@H]2c3cc(NC(=O)NC4CCCC4)ccc3O[C@H]2[C@H](CO)O1	-5
C[C@H](CO)N1C[C@H](C)[C@H](CN(C)Cc2ccc(C(F)(F)F)cc2)Oc2ccc(NC(=O)CCCN(C)C)cc2C1=O	-11

# Some of the compounds tested; the hit share may differ from the screen's.
